# Screens: PubChem BioAssay, National Center for Advancing Translational Sciences (NCATS)
# TRPV1 potentiator: human TRPV1 potentiation; potentiation, % at 8.33 µM; TRPV1-expressing cells, Fluo-8 calcium influx, capsaicin EC20 potentiation; host cell line not named in the record; control for the full effect not named in the record; hit rate 0.02% among 320,000; active means potentiation above 80%; inconclusive means 30% to 80%; inactive means below 30%; also: 0% is about no effect
#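 Cells expressing TRPV1 were dye-loaded with Fluo-8 and read kinetically: 10 s baseline, 3 min after compound (agonist portion), then 2 min after EC20 capsaicin (allosteric enhancer portion). Calcium-bound dye fluorescence at 480/520 nm.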
# TRPML1 inh: blocks the human TRPML1 channel; hit rate 0.02% among 390,000; activity change, negative = inhibition, % (test concentration not listed); AID 624415; Q9GZU1; TRPML1-inducible cells, Ca2+ dye fluorescence, FDSS; hits give low values; inhibition of EC80 agonist-evoked calcium signal; in the data active means activity change below about -50%; inconclusive means about -30% to -50%; inactive means above about -30%;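 also: stimulus is agonist 54-4 at its EC80 concentration; % is scaled to controls: 0 for no effect and ±100 for the full control effect; compound concentration not given in the record; the text of the record puts the active cut at -80%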
#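 Calcium fluorescence in TRPML1-DL cells induced overnight with Tet: a 110 s read after compound pin addition, then a 110 s antagonist read after challenge with 54-4 at 4 uM final (EC80).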
# CtBP-E1A inh: inhibitors of CtBP/E1A interaction | hit rate 0.49% among 340,000 | AlphaScreen GST-E1A/His-CtBP binding, 1536-well; hits give low values; control for the full effect not named in the record | AID 651724 | activity change, % (no concentration beside the values); in the data active means activity change below about -65%; inconclusive means about -30% to -65%; inactive means above about -30%; also: % is scaled to controls: 0 for no effect and ±100 for the full control effect; compound concentration not given in the record
#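 GST-E1A and His-tagged CtBP (125 nM each as 5X stock) were preincubated with pin-transferred compound for 2 h at 37 °C in the dark, then glutathione donor and nickel acceptor beads were added for 1 h before AlphaScreen reading.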
# TRPML1 ag: activates the human TRPML1 channel; Q9GZU1; TRPML1-expressing cells, Ca2+ dye fluorescence, FDSS; host cell line not named in the record; reference of the full effect not given here; activation, % (concentration not given with the values); hit rate 0.12% among 410,000; AID 624414; in the data active = activation above about 50%; inconclusive = about 30% to 50%; inactive = below about 30%; also: 0% is about no effect; the text of the record puts the active cut at 80%
#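 Calcium fluorescence on an FDSS kinetic reader gave the read-out. Tet-induced TRPML1-DL cells were plated overnight, dye-loaded (Ca8 with quencher, 45-90 min, room temperature, dark), then read 110 s after compound addition, and again 110 s after 4uM final 54-4 (EC80).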
# Six1-Eya2 inh: blocks human Six1 binding to Eya2. Q15475+O00167. AlphaScreen GST-Six1/His-Eya2 binding, biochemical; hits give low values; control for the full effect not named in the record. activity change, % (concentration not given with the values). hit rate 0.56% among 360,000. AID 651725; in the data active = activity change below about -65%; inconclusive = about -30% to -65%; inactive = above about -30%; also: % is scaled to controls: 0 for no effect and ±100 for the full control effect
# Target sequence (O00167 whole entry, looked up): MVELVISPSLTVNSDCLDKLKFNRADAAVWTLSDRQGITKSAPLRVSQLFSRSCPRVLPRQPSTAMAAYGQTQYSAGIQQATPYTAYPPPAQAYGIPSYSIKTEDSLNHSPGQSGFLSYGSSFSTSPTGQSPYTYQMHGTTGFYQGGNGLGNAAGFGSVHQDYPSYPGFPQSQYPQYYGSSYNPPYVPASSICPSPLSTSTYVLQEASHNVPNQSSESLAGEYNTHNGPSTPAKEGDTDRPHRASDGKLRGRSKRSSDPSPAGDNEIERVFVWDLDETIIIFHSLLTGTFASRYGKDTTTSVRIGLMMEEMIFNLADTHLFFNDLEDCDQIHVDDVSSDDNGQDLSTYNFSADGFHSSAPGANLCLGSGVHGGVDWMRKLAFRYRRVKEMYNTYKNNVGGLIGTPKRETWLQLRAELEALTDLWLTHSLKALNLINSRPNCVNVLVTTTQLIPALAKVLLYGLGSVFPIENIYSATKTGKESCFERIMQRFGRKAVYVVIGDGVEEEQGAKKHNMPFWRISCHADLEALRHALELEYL
# Target sequence (Q15475 whole entry, looked up): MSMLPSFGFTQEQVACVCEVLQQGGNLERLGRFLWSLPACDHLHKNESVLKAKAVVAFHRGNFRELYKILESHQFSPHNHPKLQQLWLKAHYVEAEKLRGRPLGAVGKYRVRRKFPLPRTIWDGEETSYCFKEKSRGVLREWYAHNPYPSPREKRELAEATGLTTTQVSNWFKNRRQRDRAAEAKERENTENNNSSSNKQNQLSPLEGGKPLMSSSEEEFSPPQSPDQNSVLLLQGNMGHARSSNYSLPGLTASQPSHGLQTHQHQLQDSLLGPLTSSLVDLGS
#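 GST-Six1 + His-Eya2 (5X stock: 250/500 nM); Tris pH 8.0, 300 mM NaCl, 0.05% BSA, 0.02% Tween 20; GSH donor/Ni acceptor beads; 1 h 37 °C dark; AlphaScreen readout.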
# D2 PAM: potentiates the human D2 dopamine receptor allosterically. P14416. DiscoveRx D2 beta-arrestin cells, luminescence, 90 min; 100% = 57 uM dopamine signal. potentiation, % (concentration not given with the values). hit rate 0.23% among 360,000; active = potentiation of 50% or more; inconclusive = 30% to 50%; inactive = 30% or less;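 also: compound concentration not given in the record; tested on top of an EC20 dose of dopamine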
#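 PathHunter beta-arrestin assay in DiscoveRx D2 cells. Compounds were added with an EC20 of dopamine (50 nM final) for 90 min at 37 deg C. Luminescence was read 1 h after detection reagent, with 57 uM dopamine as the EC100 control.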
# Starred values were filed as active, the others as inactive; ? = inconclusive; nt = no result given; & = joins results of further samples.
SMILES,TRPV1 potentiator,TRPML1 inh,CtBP-E1A inh,TRPML1 ag,Six1-Eya2 inh,D2 PAM
COc1ccc(Cl)cc1NS(=O)(=O)c1cccc(C(=O)NCC(c2ccco2)N(C)C)c1 (stereo not drawn),5.4,-0.3,0.8,0.2,-8.7,-42.8
COc1ccc(C(CNC(=O)COc2ccc(F)cc2Cl)N2CCOCC2)cc1 (stereo not drawn),-6.4,1.3,0.0,-0.1,-6.3,-4.8
Cc1noc(C)c1CSCC(=O)N(CC(C)C)c1c(N)n(Cc2ccccc2)c(=O)[nH]c1=O,-7.9,-2.3,2.7,0.4,-0.6,6.5
CSCC[C@H](NC(=O)c1cccs1)C(=O)N1CCC2(CC1)NCCc1[nH]cnc12,-0.8,-0.9,1.2,0.7,0.6,0.7
O=C(CSc1ccc(Cl)cc1)Nc1ccc(N2CCN(C(=O)c3ccc(Cl)cc3)CC2)cc1,23.8,-3.1,-0.2,2.1,-0.7,-9.3
COc1ccc(C2CCCCCN2C(=O)C2CCN(S(=O)(=O)c3ccc(C)cc3)CC2)cc1 (stereo not drawn),nt,-4.4,-4.3,0.4,5.6,-5.5
COC(=O)c1sc2nc(-c3ccccc3)nc(N3CCN(C)CC3)c2c1C,-2.0,18.9,-1.3,0.7,-1.7,-14.8
O=C(NC1CCN(Cc2ccccc2)CC1)c1cc(S(=O)(=O)N2CCOCC2)ccc1Cl,nt,13.6,-7.2,1.0,1.7,-6.0
CC(C)c1cc(N=O)cc(C(C)C)c1O,nt,-13.0,5.1,4.1,-4.2,-13.8
CC(C)[C@H](NC(=O)C1CC(=O)N(c2ccc3c(c2)OCO3)C1)C(=O)NC1CCCC1 (stereo partly drawn),2.3,-9.5,nt,2.8,-6.2,-6.0
CCCCn1c(NCc2ccccn2)nc2ccccc21,18.8,9.6,1.7,2.0,-0.9,-13.2
COc1cccc(NC(=O)CN(C)C(=O)c2c(-c3c(F)cccc3Cl)noc2C)c1,-5.2,4.3,-8.2,0.4,4.6,7.3
Cc1cc(NC(=O)CN2C(=O)NC3(CCCCCC3)C2=O)ccc1Br,-6.2,-2.6,nt,0.1,-5.5,-3.3
COc1ccc2c(c1)C(C)CC(C)(C)N2C(=O)Nc1ccccc1 (stereo not drawn),-6.5,3.0,-20.5,0.1,-24.1,-1.9
O=C(/C=C/c1ccc2c(c1)OCO2)NCCSCc1c(Cl)cccc1Cl,-0.1,-0.7,-2.4,1.4,-11.2,1.2
O=C(CCCC(=O)N(CC(=O)NC1CCCC1)c1cccc(F)c1)Nc1ccccn1,3.0,-10.4,-8.2,0.2,2.6,-3.9
CCOC(=O)C1=C(C)N(C)C(=O)NC1c1ccccc1OC (stereo not drawn),-8.0,-12.8,6.3,0.3,14.9,-7.3
Cc1csc2c(N3CCN(C(=O)Nc4ccc(OC(F)(F)F)cc4)CC3)ncnc12,-3.2,-2.0,0.0,0.4,-5.7,-6.1
O=C(c1ccc(S(=O)(=O)N2CCCC2)cc1)N1CCCc2ccccc21,-15.4,37.2,1.3,1.2,4.7,-0.2
Cn1c(N)cc(=O)[nH]c1=S,nt,8.1,15.7,0.4,0.4,12.9
CC(=O)NCC(=O)NC1(C(=O)NC2CCCC2)CCCCC1,-1.1,38.3,10.4,0.1,10.3,-9.9
CC1CCCC(C)N1CC(O)COC1CCC(C(C)(C)C)CC1 (stereo not drawn),-1.6,?,-22.3,-0.1,7.7,-4.2
COc1cccc(CN(C)C(=O)c2ccc(NS(=O)(=O)c3ccc4[nH]c(=O)[nH]c4c3)cc2)c1OC,0.0,-2.8,4.3,0.0,-1.3,22.1
N#CC(C#N)=C1C=C2C=C(N3CCCCC3)CCC2CC1 (stereo not drawn),-0.3,-26.1,8.9,108.8*,0.7,21.6
CC(C)NC(=S)N/N=C/c1ccc(C(C)(C)C)cc1,-9.5,9.4,-1.5,3.3,-20.6,-22.0
CCC(=O)Nc1nc2ccccc2n1Cc1ccc(Cl)cc1,8.5,23.7,nt,1.1,4.2,-11.6
COC(=O)c1nn(-c2ccccc2)c(Cl)c1/C=N/OCc1ccc(C)cc1,-6.9,2.3,10.2,1.4,25.0,-1.2
CCOC(=O)N1CCN(C(=O)COc2ccc3c(c2)C(=O)CC(C)(C)O3)CC1,16.0,-5.9,nt,-0.7,-1.4,-11.3
Oc1ccc(/C=N/NC(=S)Nc2cccnc2)c(O)c1O,4.1,-0.3,-93.4*,0.1,-89.4*,19.0
CC(=O)c1ccc(Nc2nc(-c3cccnc3)cs2)cc1,3.8,-16.6,0.0,-0.2,-4.6,-2.5
c1ccc(-c2nc(CSc3nnnn3-c3ccccc3)cs2)cc1,2.1,47.7,23.6,3.6,15.7,2.5
O=C(O)c1ccc2c(=O)n(-c3ccccc3)c(=S)[nH]c2c1,?,8.4,10.8,-0.3,2.7,-11.0
COc1ccccc1OCCn1cc(C=O)c2ccccc21,-13.2,2.2,7.2,-0.4,-3.5,-3.3
CC1CCCN(c2nc3c(c(=O)n(C)c(=O)n3C)n2CCSc2nc3ccccc3s2)C1 (stereo not drawn),9.1,-3.7,-1.9,0.4,-7.3,3.2
CCCCc1nnc(NC(=O)C2CCN(c3ncnc4sc(C)c(C)c34)CC2)s1,-2.9,24.8,3.9,0.1,15.3,-8.3
Cc1cccc(NC(=O)C2c3ccccc3C(=O)N3CCc4ccccc4C23)n1 (stereo not drawn),11.3,1.5,-4.8,0.0,-1.0,-0.6
Cc1cc(C#Cc2c(-c3ccccc3)n(C)c3ccccc23)ccc1F,-3.7,-1.0,33.4,0.6,23.6,-5.9
CCCc1cc(NC(=O)COC(=O)c2nccnc2N)n(-c2ccccc2)n1,13.9,-0.3,nt,-0.8,-8.6,9.4
CCOC(=O)C1CCN(C(=O)c2ccc3c(=O)n4nc(Nc5cc(C)ccc5C)sc4nc3c2)CC1,6.9,-15.3&-18.9,-28.0,3.0&0.2,-11.4,-13.2
Oc1cccc2ccc(N3CCOCC3)nc12,6.0,nt,2.3,nt,6.6,-3.4
Cc1ccc(C(=O)NC(=S)Nn2cnnc2)cc1,3.6,-3.1,11.3,-0.3,-2.9,-22.9
COc1ccc(/C=N/N2CCN(Cc3ccc(C)cc3)CC2)cc1Br,-1.7,-8.1,nt,-0.6,-12.5,-69.7
Cc1cccc(NC(=O)CCN2C(=O)c3ccccc3C2=O)c1,6.5,44.7,-3.4,0.0,2.2,-4.6
COC(=O)c1sc(S(=O)(=O)Nc2ccc(C)cc2)c(C(=O)OC)c1C,4.9,31.9,-2.2,-0.9,2.7,1.5
COc1ccccc1NC(=O)c1ccc(NC(=O)CN2CCCCC2)cc1,nt,7.8,-2.1,-1.1,-5.4,-10.2
Cc1ccccc1C(=O)NNC(=S)NC(=O)COc1ccccc1,-2.7,2.7,5.5,0.3,1.5,5.0
COc1cccc(Nc2nc3cc(OC)ccc3cc2C#N)c1,3.3,-6.0,17.6,0.7,5.0,4.0
O=C(c1cc(-c2ccccn2)nc2c(Cl)cccc12)N1CCN(S(=O)(=O)c2ccccc2)CC1,-9.8,5.1,-5.1,0.0,-16.4,-6.5
CC1(C(=O)O)CCN1C(=O)c1cccc(OC(F)(F)F)c1 (stereo not drawn),nt,nt,8.6,-0.7,-0.8,-1.3
O=[N+]([O-])c1ccc(S(=O)(=O)N2CCN(Cc3ccco3)CC2)cc1,7.5,-12.9,-4.8,-0.6,-1.8,6.6
O=C(CCc1c[nH]c2ccccc12)Nc1ncccc1O,-12.3,-7.4,-17.7,0.2,-20.4,6.7
CCc1nnc(NC(=O)CCS(=O)(=O)Cc2ccccc2)s1,17.0,-8.5,2.5,0.3,14.7,-6.9
Cc1ccc(S(=O)(=O)N2CCN(c3ccccc3)CC2)cc1C,5.6,4.8,-10.2,0.5,-5.6,-19.0
NS(=O)(=O)c1ccc(N/N=C/c2cn(-c3ccccc3)nc2-c2cccs2)c([N+](=O)[O-])c1,7.8,-0.4,-7.2,-0.5,-0.2,-3.9
Cc1ccc(C(=O)Nc2ccc(NC(=O)c3ccco3)c(C)c2)cc1,7.8,12.8,-1.9,-0.1,3.4,-6.0
O=C(c1ccncc1)N1N=C(C2CCCCC2)CC1(O)C(F)(F)F (stereo not drawn),1.7,-0.1,3.9,-1.2,-3.0,-4.0
Cc1cccnc1NC(=S)NC(=O)c1cncc(Br)c1,1.1,-29.2,-1.3,0.1,0.9,-11.2
COC(=O)c1cc(=O)n(CCc2ccccc2)c(=Nc2ccc(F)cc2)s1,14.8,-6.8,-10.7,0.3,-7.8,-3.1
O=C(CCS(=O)(=O)Cc1ccccc1F)NCCCN1CCCCC1,-9.6,13.2,4.1,-0.7,0.1,-19.3
CSc1cccc(NC(=O)CN(Cc2ccc(Cl)cc2)S(C)(=O)=O)c1,4.2,-10.4,16.2,1.6,-0.4,-20.8

# Sorted by number of heavy atoms (ascending): part of the list above
SMILES,TRPV1 potentiator,TRPML1 inh,CtBP-E1A inh,TRPML1 ag,Six1-Eya2 inh,D2 PAM
O=C(CCc1c[nH]c2ccccc12)Nc1ncccc1O,-12.3,-7.4,-17.7,0.2,-20.4,6.7
Cc1ccc(C(=O)Nc2ccc(NC(=O)c3ccco3)c(C)c2)cc1,7.8,12.8,-1.9,-0.1,3.4,-6.0
COc1ccccc1NC(=O)c1ccc(NC(=O)CN2CCCCC2)cc1,nt,7.8,-2.1,-1.1,-5.4,-10.2

# Compounds listed so far that contain fluorine (9):
SMILES,TRPV1 potentiator,TRPML1 inh,CtBP-E1A inh,TRPML1 ag,Six1-Eya2 inh,D2 PAM
COc1ccc(C(CNC(=O)COc2ccc(F)cc2Cl)N2CCOCC2)cc1 (stereo not drawn),-6.4,1.3,0.0,-0.1,-6.3,-4.8
COc1cccc(NC(=O)CN(C)C(=O)c2c(-c3c(F)cccc3Cl)noc2C)c1,-5.2,4.3,-8.2,0.4,4.6,7.3
O=C(CCCC(=O)N(CC(=O)NC1CCCC1)c1cccc(F)c1)Nc1ccccn1,3.0,-10.4,-8.2,0.2,2.6,-3.9
Cc1csc2c(N3CCN(C(=O)Nc4ccc(OC(F)(F)F)cc4)CC3)ncnc12,-3.2,-2.0,0.0,0.4,-5.7,-6.1
Cc1cc(C#Cc2c(-c3ccccc3)n(C)c3ccccc23)ccc1F,-3.7,-1.0,33.4,0.6,23.6,-5.9
CC1(C(=O)O)CCN1C(=O)c1cccc(OC(F)(F)F)c1 (stereo not drawn),nt,nt,8.6,-0.7,-0.8,-1.3
O=C(c1ccncc1)N1N=C(C2CCCCC2)CC1(O)C(F)(F)F (stereo not drawn),1.7,-0.1,3.9,-1.2,-3.0,-4.0
COC(=O)c1cc(=O)n(CCc2ccccc2)c(=Nc2ccc(F)cc2)s1,14.8,-6.8,-10.7,0.3,-7.8,-3.1
O=C(CCS(=O)(=O)Cc1ccccc1F)NCCCN1CCCCC1,-9.6,13.2,4.1,-0.7,0.1,-19.3
